# D2 PAM: Beta-Arrestin HTS for Positive Allosteric Modulators of the Human D2 Dopamine Receptor: Potentiators; 0.23% of 360,000 active; potentiation, % (test concentration not listed); D(2) dopamine receptor (Homo sapiens), P14416; DiscoveRx D2 beta-arrestin cells, luminescence, 90 min; 100% = 57 uM dopamine signal; active = potentiation of 50% or more; inconclusive = 30% to 50%; inactive = 30% or less;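 also: compound concentration not given in the record; tested on top of an EC20 dose of dopamine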
# Target sequence (P14416 whole entry, looked up): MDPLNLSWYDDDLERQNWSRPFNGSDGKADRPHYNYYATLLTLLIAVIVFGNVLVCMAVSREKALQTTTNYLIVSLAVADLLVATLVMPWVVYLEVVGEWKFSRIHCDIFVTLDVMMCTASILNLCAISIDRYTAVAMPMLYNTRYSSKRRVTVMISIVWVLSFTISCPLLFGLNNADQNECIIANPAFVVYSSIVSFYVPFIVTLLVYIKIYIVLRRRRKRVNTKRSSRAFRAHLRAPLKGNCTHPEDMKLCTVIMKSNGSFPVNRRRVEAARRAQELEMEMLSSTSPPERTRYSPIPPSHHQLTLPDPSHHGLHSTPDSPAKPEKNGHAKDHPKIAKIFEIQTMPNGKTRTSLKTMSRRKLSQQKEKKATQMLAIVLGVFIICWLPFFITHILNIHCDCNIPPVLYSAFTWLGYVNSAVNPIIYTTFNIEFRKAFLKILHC
#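 PathHunter beta-arrestin assay in DiscoveRx D2 cells. Compounds were added with an EC20 of dopamine (50 nM final) for 90 min at 37 deg C. Luminescence was read 1 h after detection reagent, with 57 uM dopamine as the EC100 control.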
# CtBP-E1A blk: qHTS Assay for Inhibitors of the CtBP/E1A Interaction; CtBP / adenovirus E1A interaction (AlphaScreen); AlphaScreen GST-E1A/His-CtBP binding, 1536-well; stronger effect = lower value; control for the full effect not named in the record; activity change, % (concentration not given with the values); 0.49% of 340,000 active; AID 651724, 2012; in the data active means activity change below about -65%; inconclusive means about -30% to -65%; inactive means above about -30%; also: % is scaled to controls: 0 for no effect and ±100 for the full control effect
#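 AlphaScreen with 125 nM GST-E1A and 125 nM His-CtBP (5X stocks) in Tris pH 8.0, 300 mM NaCl, BSA, Tween 20, TCEP. Compounds preincubated 2 h at 37 deg C, then glutathione donor/nickel acceptor beads added for 1 h at 37 deg C in dark.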
# TRPV1 PAM: HTS Assay for Compounds that Act as Potentiators of the Vanilloid Receptor 1 | TRPV1-expressing cells, Fluo-8 calcium influx, capsaicin EC20 potentiation; host cell line not named in the record; control for the full effect not named in the record | potentiation, % at 8.33 µM | 0.02% of 320,000 active | Transient receptor potential cation channel subfamily V member 1 (Homo sapiens), Q8NER1; active means potentiation above 80%; inconclusive means 30% to 80%; inactive means below 30%; also: 0% is about no effect
#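 Cells expressing TRPV1 were dye-loaded with Fluo-8 and read kinetically: 10 s baseline, 3 min after compound (agonist portion), then 2 min after EC20 capsaicin (allosteric enhancer portion). Calcium-bound dye fluorescence at 480/520 nm.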
# TRPML1 blocker: qHTS for Inhibitors of the Human Mucolipin Transient Receptor Potential 1 (TRPML1) | activity change, negative = inhibition, % (concentration not given with the values) | Mucolipin-1 (Homo sapiens), Q9GZU1 | TRPML1-inducible cells, Ca2+ dye fluorescence, FDSS; stronger effect = lower value; inhibition of EC80 agonist-evoked calcium signal | AID 624415, 2012 | 0.02% of 390,000 active; in the data active means activity change below about -50%; inconclusive means about -30% to -50%; inactive means above about -30%;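 also: stimulus is agonist 54-4 at its EC80 concentration; % is scaled to controls: 0 for no effect and ±100 for the full control effect; compound concentration not given in the record; the text of the record puts the active cut at -80%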
# Target sequence (Q9GZU1 whole entry, looked up): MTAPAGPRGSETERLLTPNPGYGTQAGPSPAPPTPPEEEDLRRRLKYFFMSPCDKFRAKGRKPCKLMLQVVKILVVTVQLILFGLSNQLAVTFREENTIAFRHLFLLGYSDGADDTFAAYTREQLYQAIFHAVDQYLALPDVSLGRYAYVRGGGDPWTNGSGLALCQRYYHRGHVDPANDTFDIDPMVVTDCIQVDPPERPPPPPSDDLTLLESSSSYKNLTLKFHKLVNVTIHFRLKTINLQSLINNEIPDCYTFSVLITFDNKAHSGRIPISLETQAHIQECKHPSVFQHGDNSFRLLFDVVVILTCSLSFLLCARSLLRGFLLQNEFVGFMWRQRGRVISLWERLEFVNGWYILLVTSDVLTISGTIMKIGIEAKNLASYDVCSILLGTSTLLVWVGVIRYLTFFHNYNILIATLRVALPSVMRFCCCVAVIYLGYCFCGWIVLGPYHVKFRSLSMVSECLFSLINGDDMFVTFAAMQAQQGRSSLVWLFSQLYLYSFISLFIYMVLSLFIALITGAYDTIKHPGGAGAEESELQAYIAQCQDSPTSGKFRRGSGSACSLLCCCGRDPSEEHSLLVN
#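 TRPML1-DL cells, Tet-induced overnight (~16 h, 37 °C) at 1,500 cells/well, were loaded with Ca8 no-wash dye plus quencher for 45-90 min at room temperature. Compounds were pinned during FDSS kinetic reading; agonist 54-4 at EC80 (4 uM final) then added.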
# Six1-Eya2 blk: qHTS Assay for Inhibitors of the Six1/Eya2 Interaction | Homeobox protein SIX1 (Homo sapiens) + Protein phosphatase EYA2 (Homo sapiens), … | AlphaScreen GST-Six1/His-Eya2 binding, biochemical; stronger effect = lower value; control for the full effect not named in the record | activity change, % (test concentration not listed) | 0.56% of 360,000 active | AID 651725, 2012; in the data active = activity change below about -65%; inconclusive = about -30% to -65%; inactive = above about -30%; also: % is scaled to controls: 0 for no effect and ±100 for the full control effect; compound concentration not given in the record
#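 AlphaScreen with GST-Six1 and His-Eya2 (5X mix: 250 nM and 500 nM), glutathione donor and nickel acceptor beads; buffer 50 mM Tris pH 8.0, 300 mM NaCl, 1 mM TCEP; 1 h at 37 C in the dark.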
# TRPML1 agonist: qHTS for Agonists of the Human Mucolipin Transient Receptor Potential 1 (TRPML1); activation, % (test concentration not listed); TRPML1-expressing cells, Ca2+ dye fluorescence, FDSS; host cell line not named in the record; reference of the full effect not given here; Mucolipin-1 (Homo sapiens), Q9GZU1; 0.12% of 410,000 active; in the data active = activation above about 50%; inconclusive = about 30% to 50%; inactive = below about 30%; also: 0% is about no effect; the text of the record puts the active cut at 80%
#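 Agonist activity was taken from a 110 s kinetic Ca2+ dye read on the FDSS after pinning compounds onto TRPML1-DL cells. The cells were seeded at 1,500/well with Tet inducer, incubated about 16 h, then dye-loaded at room temperature.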
# The depositor's hits bear a star; u = inconclusive; x = not tested or not shown; & = joins results of further samples.
# Value order – D2 PAM	CtBP-E1A blk	TRPV1 PAM	TRPML1 blocker	Six1-Eya2 blk	TRPML1 agonist
COc1ccc(-c2cc(-c3cccnc3)c(C#N)c(N)n2)cc1
  -2	-2	0	-18	-4	-0.5
CC(O)C(=O)NCCOCCOCCNC(=O)C(C)O (centres undefined)
  -23	2	6	7	-1	-0.6
c1ccc(Cn2nnc3c(N4CCOCC4)ncnc32)cc1
  -4	-3	18	2	-16	-1.1
CCS(=O)(=O)c1nc(S(=O)(=O)c2ccc(C)cc2)c(N2CCN(CCO)CC2)s1
  -31	4	-18	32	4	-0.1
COc1ccccc1NC(=O)Cc1csc(NC(=S)Nc2ccccc2)n1
  -2	-16	8	8	-12	-0.1
Cc1cnc(C(=O)Nc2ccc(-n3cnnn3)cc2)cn1
  -16	0	7	22	11	0.7
Nc1nc(-c2cccc(Br)c2)cs1
  -10	7	13	7	-19	1.2
O=C(Cc1ccccc1)NNC(=O)c1cnccn1
  -3	-1	3	9	-2	0.7
FC(F)(F)c1cccc(-c2nnc3ccc(C(F)(F)F)cn23)c1
  -8	2	x	-6	5	1.3
O=C(Nc1ccccc1F)Nc1cccnc1Cl
  -1	-13	x	-1	-13	1.7
CCOc1ccc(C(=O)CN2C(=O)NC3(CCCCCC3)C2=O)cc1
  1	-15	u	-7	7	0.0
COc1cccc(C(=O)Nc2nnc(S(=O)(=O)N(C)c3ccccc3)s2)c1
  -21	3	7	-11	-1	-0.5
N#CC1=C(N)Oc2cc(O)ccc2C1c1cccnc1 (centres undefined)
  1	1	1	6	7	1.1
Nc1c(C(=O)CSc2nnc(N3CCOCC3)n2-c2cccc(F)c2)c(=O)[nH]c(=O)n1C1CC1
  9	-5	7	18	-2	4.2
O=C(/C=C/c1ccco1)NC1=NCCS1
  -2	-9	6	-14	8	0.8
COC(=O)c1cc(C(=O)OC)cc(N2C(=O)CC(NNC(=O)c3ccccc3Cl)C2=O)c1 (centres undefined)
  -13	0	7	7	7	-0.2
CCOCc1c(C(=O)NC2CCCCCC2)oc2ccccc12
  -5	8	-9	-24	11	1.8
C[C@@H](CSc1ccccc1)CN1CC[C@H](NC(=O)OCc2ccccc2)CCC1=O
  -8	x	7	-19	3	2.8&0.6
COC(=O)C[C@H]1C[C@H]2c3cc(NC(=O)Nc4ccc(F)cc4)ccc3O[C@H]2[C@@H](CO)O1
  4	-11	x	17	7	-0.3
COc1ccccc1N(C)S(=O)(=O)c1ccc(C(=O)NC(C)c2ccccc2)cc1 (centres undefined)
  -24	8	-12	-2	19	0.7
Cc1ccc(-c2cnc(NCc3cc4c(cc3[N+](=O)[O-])OCO4)n2C)cc1C
  -11	-14	-10	9	-20	-0.6
CSc1ccc(CN2CCC2(C)C(=O)NC2CCN(Cc3ccccc3)CC2)cc1 (centres undefined)
  -21	-10	x	x	-15	-0.3
Cc1csc(SCC(=O)c2c(N)n(C)c(=O)n(C)c2=O)n1
  4	5	4	-5	-9	-0.2
CN(C(=O)COC(=O)C1CCN(S(=O)(=O)c2cccs2)CC1)C1CCS(=O)(=O)C1 (centres undefined)
  -3	11	5	2	2	0.5
Cc1cc(-c2csc(NC(=O)c3cc4ccccc4o3)n2)c(C)n1C
  -10	-7	21	2	-1	-0.4
O=c1cc(CO)oc(C(Nc2cccc(C(F)(F)F)c2)c2ccccn2)c1O (centres undefined)
  -2	1	-7	-7	-7	0.3
CC1(C)CC2(CCO1)OC(=O)CC2C(=O)NCCc1ccccc1 (centres undefined)
  -3	11	7	5	-1	-0.7
Cc1ccc(S(=O)(=O)N2CCC(C(=O)Nc3ccc(S(=O)(=O)N4CCOCC4)cc3)CC2)cc1
  2	1	x	-13	-1	2.5
COc1ccccc1Oc1ccc(NC(=O)c2ccccc2C)cc1
  -5	x	-18	6	2	1.9
O=[N+]([O-])c1ccc(-c2n(-c3ccccn3)c3ccccc3[n+]2-c2ccccn2)cc1
  6	-7	27	-16	7	-0.8

# Continued.
# Value order – D2 PAM	CtBP-E1A blk	TRPV1 PAM	TRPML1 blocker	Six1-Eya2 blk	TRPML1 agonist
CC(=O)NC(CC(=O)N1CCN(C(C)=O)CC1)c1ccccc1 (centres undefined)
  -10	-2	4	7	3	0.3
COC(CN1C(=O)C(=O)/C(=C(/O)c2ccccc2)C1c1ccccn1)OC (centres undefined)
  -6	x	-1	14	-1	0.2
CCC1(c2ccc(F)cc2)NC(=O)N(CC(=O)N2CCN(S(=O)(=O)c3ccc(C)cc3)CC2)C1=O (centres undefined)
  7	-1	4	4	3	0.5
Cn1cc(P(=S)(N2CCOCC2)N2CCOCC2)cc1P(=S)(N1CCOCC1)N1CCOCC1
  -2	0	-18	2	2	0.4
CC(=O)C1=C(C)NC2=C(C(=O)c3ccccc32)C1c1ccccc1 (centres undefined)
  -13	-24	-6	-2	-28	3.2
Cc1cc(C(=O)Nn2cnnc2)ccc1[N+](=O)[O-]
  -11	x	27	x	-1	x
COc1ccccc1N1CCN(c2nc3c(C)cccn3c(=O)c2C=O)CC1
  1	-16	-12	-6	-16	0.3
COC(=O)c1nc[nH]c1C(=O)OC
  -3	3	-4	-3	22	0.3
O=C(CCSc1ccccc1)NCCSCc1ccco1
  -17	2	-30	-9	-4	1.3
CC(Oc1ccc2ccccc2c1)C(=O)NNC(=S)NC(=O)c1ccco1 (centres undefined)
  -14	-9	1	-1	-15	25
Cc1ccsc1C(=O)OCC(=O)NC1CCCC(C)C1C (centres undefined)
  1	0	x	3	0	0.9
O=C(CN1CCN(S(=O)(=O)c2ccc(Br)cc2)CC1)N/N=C/c1ccc(Cl)c([N+](=O)[O-])c1
  -16	-7	-9	10	-18	2.2
CCn1cc(/C=C/C(=O)NCc2c(C)nn(C)c2C)cn1
  2	-12	24	-11	-9	0.5
COC(=O)Cn1c(=NC(=O)c2ccc(S(=O)(=O)N3CCOCC3)cc2)sc2cc(S(N)(=O)=O)ccc21
  u	0	-6	5	-6	1.0
COc1ccc(CNc2ccc(Br)cc2)cc1
  -4	-10	13	-10	8	2.7
CCCN=C1CC(C)(C)CC(=O)/C1=C(/O)CCC
  -4	7	23	24	10	-0.5
COc1ccc(/C=N/Nc2ncnc3sc(C)c(C)c23)cc1
  -12	-3	-21	4	u	-1.5
COc1c(-c2ccc([N+](=O)[O-])cc2[N+](=O)[O-])c(=O)n(C)c(=O)n1C
  -21	-1	10	-3	-22	0.7
CCC(CC)C(=O)N(C)c1c(C)nc2c(OCc3ccc(OC(F)F)cc3)cccn12
  -1	-3	x	x	-3	-0.4
O=C(CSC1CS(=O)(=O)c2cc([N+](=O)[O-])ccc21)NNC(=O)c1ccc(Cl)cc1 (centres undefined)
  -2	-8	0	20	-6	1.8
COC(=O)C1=C(C(=O)OC)[C@@H]2N(C)c3ccccc3[C@@]23C[C@@H](CO)N=C3N1
  -7	-13	x	-4	1	-0.3
C=CCN1C(=O)[C@@H]2Cc3c([nH]c4ccccc34)C(c3ccc(O)cc3)N2C1=S (some centres undefined)
  -2	x	-1	-20	-15	0.4
CCN(CC)CCn1c2c(c(SCC(=O)Nc3cccc4ccccc34)nc1=O)CCC2
  -11	-22	3	-14	-1	0.2
Cc1ccc(-c2noc(C3CCCN(C(=O)c4ccccc4)C3)n2)o1 (centres undefined)
  -9	3	-12	-3	-2	-0.5
O=C(COC(=O)Cc1ccc(F)cc1)NC1CCCCCC1
  -7	6	-24	6	7	1.0
COC(=O)c1ccc(COC(=O)c2cc3ccccc3oc2=O)cc1
  -2	-2	-14	-8	3	0.5
Cc1ccccc1S(=O)(=O)NC(=O)C1(C)CCN1C(=O)CC1CCCCC1 (centres undefined)
  1	-2	x	x	7	-0.4
O=C(CCCN1C(=O)C2C3C=CC(C3)C2C1=O)N1CCN(c2ccccc2)CC1 (centres undefined)
  -16	1	x	-1	0	-1.2
Cc1cccc(OCCC(=O)Nc2ccccc2C(N)=O)c1
  12	4	-17	2	2	-0.7
CCc1ccccc1NC(=O)COC(=O)c1cccs1
  1	28	u	49	10	0.7

# (listing goes on)
# Value order – D2 PAM	CtBP-E1A blk	TRPV1 PAM	TRPML1 blocker	Six1-Eya2 blk	TRPML1 agonist
NC(=O)c1ncc(C(F)(F)F)cc1Oc1cccc(F)c1
  -18	4	4	4	5	-0.5
CC12CCC(C(=O)N(CC(=O)O)C1=O)C2(C)C (centres undefined)
  -5	4	5	16	5	-0.6
CCOC(=O)N1CCN(S(=O)(=O)c2ccc(OCC(=O)OC)c(Cl)c2)CC1
  -15	4	-25	-19	2	-0.2
CCC(C)NC(=O)CN(c1cc(Cl)ccc1OC)S(C)(=O)=O (centres undefined)
  1	-3	-9	-13	0	-0.7
O=c1[nH]c(=S)[nH]cc1Oc1ccc(Cl)cc1Cl
  -22	x	8	-8	-12	-0.5
CC(=O)c1ccc(N2CCN(CC(=O)N(C3CC3)C3CCS(=O)(=O)C3)CC2)c(F)c1 (centres undefined)
  -8	0	-13	15	0	-0.3
COCCC(=O)Nc1ccc2c(c1)CN(C(=O)CSC)CC2
  -3	-3	-2	-10	2	-0.2
O=C(NCCc1ccc(Cl)cc1)C1CCC(CNc2nc(=S)[nH]c3ccccc23)CC1 (centres undefined)
  0	0	4	5	u	0.4
COc1ccc(S(=O)(=O)CCC(=O)N2CCN(c3ccc([N+](=O)[O-])cc3)CC2)cc1
  -9	-3	1	10	-2	0.1
CC(C)Cc1nnc(NC(=O)CCC(=O)NC2CCCc3ccccc32)s1 (centres undefined)
  -7	-9	-7	-16	0	1.4
CC/C(=N\NC(=O)CSCc1ccccc1Cl)c1ccc2c(c1)OCCO2
  -9	-4	-13	19	-11	3.3
COc1cccc(-c2nc3nc(C)cc(C)n3c2NCc2ccccc2)c1
  x	0	x	x	-4	-1.1
NC(=S)N=Nc1c(O)n(Cc2ccc(Br)cc2)c2ccccc12
  52*	-6	2	9	-8	1.9
CC1(C(=O)O)CCC(C(N)=O)C1(C)C (centres undefined)
  -3	5	u	5	1	0.0
CCN1CCN(c2ccc(S(=O)(=O)N3CCCCC3)cc2NC(=O)/C=C/c2ccc(F)cc2)CC1
  -2	0	4	16	-6	-0.3
COC(=O)NC1(C(=O)O)CCCC1
  -10	-7	-3	10	-7	2.1
COC(=O)[C@H](Cc1ccc(O)cc1)NC(=O)Cn1cnc2c(OCc3ccccc3)ncnc21
  x	-3	x	-3	4	2.1
CCc1ccc2oc(C(=O)NCc3ccncc3)c(C)c2c1
  2	-4	-18	3	0	-0.9

# Compound activity from PubChem.
